Assay outcomes from PubChem BioAssay.
RmlCD inh 1536 = M. tuberculosis RmlC/RmlD coupled enzyme inhibitors, primary screen, biochemical, compound mixtures, 384-well, from 1536-well plates | inhibition, % at 3.6 µM | 160,000 compounds, 0.03% hits | AID 1533, 2009 | dTDP-4-dehydrorhamnose reductase (Mycobacterium tuberculosis (strain ATCC 25618 / H37Rv)) … | RmlC+RmlD coupled enzyme assay, percent inhibition; primary screen in compound mixtures; in the data active means inhibition mostly above about 34%, no sharp cut-off; only retested compounds are shown here; further: some results filed as inactive read as strong as hits
Target sequence (P9WH09 whole entry, looked up): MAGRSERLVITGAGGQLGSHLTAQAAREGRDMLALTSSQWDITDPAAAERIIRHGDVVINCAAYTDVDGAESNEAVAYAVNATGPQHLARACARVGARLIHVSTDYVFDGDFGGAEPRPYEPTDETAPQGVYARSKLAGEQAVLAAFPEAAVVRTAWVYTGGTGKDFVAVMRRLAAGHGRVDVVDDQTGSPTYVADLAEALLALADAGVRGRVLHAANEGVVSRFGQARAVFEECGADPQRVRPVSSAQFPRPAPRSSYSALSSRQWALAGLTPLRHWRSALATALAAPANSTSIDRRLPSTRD
Target sequence (P9WH11 whole entry, looked up): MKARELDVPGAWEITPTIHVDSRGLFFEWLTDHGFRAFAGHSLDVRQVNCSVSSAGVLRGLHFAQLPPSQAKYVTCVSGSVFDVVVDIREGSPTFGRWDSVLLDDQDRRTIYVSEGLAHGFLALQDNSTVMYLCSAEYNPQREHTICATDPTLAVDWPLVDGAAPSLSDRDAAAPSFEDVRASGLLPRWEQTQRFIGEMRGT
RmlCD inh 1536 retest = second read-out of RmlCD inh 1536, no call of its own (marks repeat the call); inhibition, %; measured here: mean retest inhibition;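 single compounds in two wells; values far above 100% likely come from compound fluorescence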
* hit, by the source's call; / = no result given. Only part of the results is shown; rates above refer to the full screens.

Every second line gives: RmlCD inh 1536 retest, RmlCD inh 1536
- CC(/C=C/c1ccc2c(c1)OCO2)=N\NC(=O)c1cccc([N+](=O)[O-])c1
  -4, 58
- CCCOc1ccc([C@@H]2C3CN(C(=O)OCC)CC=C3C(C#N)=C(N)C2(C#N)C#N)cc1OC (some centres not stated)
  22, 44
- Cc1nc2ccccc2c(=O)n1/N=C/c1ccc(N(C)C)cc1
  1, 81
- Cc1[nH]c(=S)c(C#N)c(C)c1Cc1ccc(Cl)cc1Cl
  -8, 40
- Cc1nn(Cc2ccccc2Cl)c(Cl)c1C(=O)OCC(=O)NC(=O)NC1CCCCC1
  -4, 31
- Cc1ccc(S(=O)(=O)Nc2ccccc2C=Nc2cccc(C)c2C)cc1
  5, 61
- O=C(COC(=O)c1cccs1)NCC1CCCCC1
  0, 76
- CC(C)N(CC#CCC(O)(c1ccccc1)c1ccccc1)C(C)C
  2, 50
- CCCCNC(=O)COC(=O)c1ccc(N(C)C)cc1
  5, 31
- c1ccc(-c2csc(-c3cccnc3)n2)cc1
  6, 85
- Cn1c(SCC2CCCO2)nnc1-c1cccc([N+](=O)[O-])c1 (configuration not stated)
  -17, 68
- COc1cccc(Nc2nnc(SCc3nc4ccccc4s3)s2)c1
  -3, 39
- CCn1c(SC)nnc1-c1nn(-c2ccccc2)ccc1=O
  11, 66
- Cc1ccc(Cc2cc(-c3ccc(C)cc3)n[nH]c2=O)cc1
  -7, 36
- Oc1ccccc1/C=N/NC(=S)NC1CC2C=CC1C2 (configuration not stated)
  4, 55
- Cc1ccsc1/C=N\NC(=O)c1n[nH]c2c1CCC2
  -14, 109
- Fc1ccc(-c2csc3ncnc(Cl)c23)cc1
  -17, 68
- O=c1[nH]cc(NCCNc2ncc(C(F)(F)F)cc2Cl)c(=O)[nH]1
  11, 47
- O=C(CNC(=O)c1ccco1)N/N=C/c1ccc(O)c([N+](=O)[O-])c1
  -7, 31
- N=c1c2ccccc2nnn1-c1ccc(C(F)(F)F)cc1
  4, 36
- COc1ccc(-c2c[n+](CC(=O)N3c4ccccc4Sc4ccccc43)c3n2CCC3)cc1
  4, 60
- Cc1ccc(S(C)(=O)=NS(=O)(=O)c2cccc3nsnc23)cc1 (configuration not stated)
  -7, 64
- CC(C)CN=CC1=C(O)c2ccccc2C1=O
  0, 79
- O=C1C(C2=NC(c3ccccn3)C3C(=O)N(c4ccccc4)C(=O)C23)=C(O)c2ccccc21 (configuration not stated)
  -7, 83
- CCn1c(CNC(=O)c2ccccc2F)nnc1SCc1nc2ccccc2c(=O)[nH]1
  13, 32
- Cc1ccc(-c2nnc(SCCC(=O)N3CCOCC3)o2)cc1
  -4, 32
- O=S(=O)(N/N=C\c1cn(-c2ccccc2)nc1-c1ccccc1)c1ccccc1
  10, 36
- O=C(Cn1cc(S(=O)(=O)Cc2ccccc2)c2ccccc21)Nc1ccccc1
  -13, 63
- COc1ccc(/C=C/C(=O)NCc2ccccn2)cc1
  -23, 55
- Cc1ccc(-c2cc(C(=O)N(C)Cc3cnn(C)c3C)c3cc(Br)ccc3n2)cc1
  4, 31

Sorted by length of the SMILES (lowest first): some entries from above
Every second line gives: RmlCD inh 1536 retest, RmlCD inh 1536
- Fc1ccc(-c2csc3ncnc(Cl)c23)cc1
  -17, 68
- COc1ccc(/C=C/C(=O)NCc2ccccn2)cc1
  -23, 55
- O=c1[nH]cc(NCCNc2ncc(C(F)(F)F)cc2Cl)c(=O)[nH]1
  11, 47
- O=C(Cn1cc(S(=O)(=O)Cc2ccccc2)c2ccccc21)Nc1ccccc1
  -13, 63
- O=C(CNC(=O)c1ccco1)N/N=C/c1ccc(O)c([N+](=O)[O-])c1
  -7, 31
- Cc1ccc(-c2cc(C(=O)N(C)Cc3cnn(C)c3C)c3cc(Br)ccc3n2)cc1
  4, 31
- COc1ccc(-c2c[n+](CC(=O)N3c4ccccc4Sc4ccccc43)c3n2CCC3)cc1
  4, 60

Next part
Every second line gives: RmlCD inh 1536 retest, RmlCD inh 1536
- CCCCn1c(N)c(C(=S)NC(=O)CC(C)(C)C)c(=O)n(C)c1=O
  -30, 106
- COC(=O)C1CCN(C(=O)COC(=O)[C@@H]2CC(O)CN2S(=O)(=O)c2ccc3c(c2)OCCO3)CC1 (some centres not stated)
  9, 57
- COc1ccc(C(=O)COC(=O)CNS(=O)(=O)c2ccc(C)cc2)cc1
  -4, 109
- CCOC(=O)/C(C#N)=C(\N)C(C)C(=O)Nc1ccccn1 (configuration not stated)
  7, 34
- Cc1cc(C)n(-c2nc(NCCCN(C)C)c3c4c(sc3n2)CCCC4)n1
  -12, 37
- COc1cccc(/C=C/c2nc3c(cnn3-c3ccccc3)c(=O)[nH]2)c1
  /, 35*
- CCC(C)(C)NC(=O)/C=C/c1cccs1
  -4, 31
- COC(=O)c1sccc1NC(=O)COc1ccc(Cl)cc1Cl
  8, 44
- Cc1cc(NC(=O)c2c(-c3c(Cl)cccc3Cl)noc2C)n(C)n1
  -12, 74
- NS(=O)(=O)c1ccc(Sc2ccccn2)c([N+](=O)[O-])c1
  -14, 40
- CSc1nnc(CCCCCNC(=O)OC(C)(C)C)o1
  5, 37
- COC(=O)c1c(C)[nH]c(C=Nc2ccc(OC)cc2)c1C
  -11, 52
- COc1ccc(NC(=O)CC2CC3CCC2C3)cn1 (configuration not stated)
  -1, 47
- Cc1cc(C)cc(N=Cc2ccc([N+](=O)[O-])s2)c1
  1, 34
- O=C(COC(=O)c1ccc(S(=O)(=O)N2CCCCC2)cc1)NCc1ccco1
  -11, 48
- O=C(COc1ccc(-c2ccccc2)cc1)N/N=C/c1cc(O)ccc1Br
  10, 94
- O=C(/C=C/Nc1cccc(C(F)(F)F)c1)C(F)(F)F
  5, 47
- Cc1ccc(/C=N\NC(=O)c2cc([N+](=O)[O-])cc([N+](=O)[O-])c2)o1
  -27, 38
- CN(C)CC#Cc1cncc(C(=O)NNC(=O)Nc2ccc(Cl)cc2)c1
  -5, 36
- COc1ccc(CCN=C(N)NS(=O)(=O)c2ccc(C)c(C)c2)cc1
  4, 36
- O=C(c1cccnc1)c1cccnc1
  1, 59
- O=C(O)COc1ccccc1/C=N/Nc1ccc(S(=O)(=O)Nc2ccc(Cl)cc2)cc1[N+](=O)[O-]
  0, 34
- CCOC(=O)C(C)Sc1ncc(-c2ccccc2)cn1 (configuration not stated)
  11, 60
- CCOC(=O)CNC(=O)Cc1ccc(OC)cc1
  7, 105
- CC(=O)c1cccc(NC(=O)C(Sc2ncnc3ccccc23)c2ccccc2)c1 (configuration not stated)
  1, 68
- O=[N+]([O-])c1cc(Br)cc(C=Nc2ccc3c(c2)OCO3)c1O
  9, 33
- Fc1ccccc1-n1cc(-c2ccccc2)[nH]c1=S
  9, 53
- CCS(=O)(=O)NCC(c1ccco1)N1CCN(c2ccc(F)cc2)CC1 (configuration not stated)
  -2, 30
- CC(C)(C)NC(=O)C(c1ccncc1)N(CC1CCCO1)C(=O)Cn1nnc(-c2ccc(F)cc2)n1 (configuration not stated)
  -11, 39
- COCc1cc(=O)[nH]c(-c2ccc(C(F)(F)F)cc2)n1
  -10, 31
- CCOC(=O)CSCCOc1ccc(C=C2C(=O)NC(=O)NC2=O)cc1OC
  -2, 31
- Oc1ccc(Nc2nnc(-c3ccc(O)cc3)c3ccccc23)cc1
  14, 46
- COc1cc(OC)cc(N(C(=O)CNC(=O)c2cccs2)C(C(=O)NCC2CCCO2)c2ccc(OC)c(OC)c2)c1 (configuration not stated)
  -8, 32
- COc1ccc(OC)c(NC(=O)c2ccc3c(=O)n(CCc4ccccc4)c(=S)[nH]c3c2)c1
  -12, 56
- CC(=NCCN1CCNCC1)C1=C(O)CC(C)(C)CC1=O
  3, 44
- CCCOC(=O)Nc1sc2c(c1C(N)=O)CCCC2
  -7, 32
- COC(=O)CN1C(c2ccc(OC)cc2)=Nc2ccc(Cl)cc2C1c1ccccc1 (configuration not stated)
  -24, 51
- Cc1cc(C)n(-c2nc(NCCCN(C)C)c3c4c(sc3n2)COC(C)(C)C4)n1
  -6, 45
- NS(=O)(=O)c1ccc(CCNC(=O)CC(NC(=O)c2ccccc2Cl)c2ccccc2)cc1 (configuration not stated)
  -35, 68
- Cc1cc(=O)oc2cc(NS(=O)(=O)c3ccccc3)ccc12
  105*, 43*
- O=C(NCc1cccs1)C(=O)NCC1OCCCN1S(=O)(=O)c1ccccc1 (configuration not stated)
  2, 38
- O=c1c(-c2ccc(Cl)cc2)[n+]([O-])c2ccccc2n1O
  3, 63
- CCOC(=O)N1N=C(C)CC1(O)c1ccccc1 (configuration not stated)
  4, 49
- CC(=O)c1cc(C(C)=O)c(C)[n+](C)c1C
  -6, 55
- CC(C)Sc1ccc([N+](=O)[O-])cc1C(=O)Nc1ccncc1
  -13, 79

One compound at a time (already shown). Order of values: RmlCD inh 1536 retest	RmlCD inh 1536
Shown for `COC(=O)CN1C(c2ccc(OC)cc2)=Nc2ccc(Cl)cc2C1c1ccccc1` (configuration not stated) → -24	51
Shown for `COc1ccc(OC)c(NC(=O)c2ccc3c(=O)n(CCc4ccccc4)c(=S)[nH]c3c2)c1` → -12	56
Shown for `Cc1cc(=O)oc2cc(NS(=O)(=O)c3ccccc3)ccc12` → 105*	43*
Shown for `O=C(NCc1cccs1)C(=O)NCC1OCCCN1S(=O)(=O)c1ccccc1` (configuration not stated) → 2	38

(list continues)
Every second line gives: RmlCD inh 1536 retest, RmlCD inh 1536
- N#Cc1ccc(OCC(=O)Nc2cc(S(=O)(=O)N3CCOCC3)ccc2N2CCOCC2)cc1
  -7, 37
- CCOC(=O)c1cc(CC)sc1N1C(=O)CC(Sc2ncccc2C(=O)O)C1=O (configuration not stated)
  -3, 44
- NS(=O)(=O)c1cccc(NS(=O)(=O)c2ccc(/C=C/C(=O)OCC(=O)c3ccccc3)cc2)c1
  -11, 41
- CCCCOc1ccc(C(=O)CCN2CCOCC2)cc1
  -8, 34
- COc1nccnc1NS(=O)(=O)c1ccc(NC(=S)NC(=O)c2ccccc2F)cc1
  -4, 45
- CCN(CC)C(=O)c1ccc(NC(=O)COc2ccc([N+](=O)[O-])cc2Cl)cc1
  -20, 98
- NS(=O)(=O)c1ccc(NC(=O)/C=C/c2cccc(Cl)c2)cc1
  5, 40
- Cn1nccc1NC(=O)Nc1cccc(Cl)c1
  -5, 60
- Cc1ccc(S(=O)(=O)c2nc(-c3ccccc3)oc2NCCCN2CCOCC2)cc1
  3, 99
- CN1CCN(C(=S)c2ccc([N+](=O)[O-])cc2)CC1
  7, 54
- CCOC(=O)c1ccc(NC(=S)NCCc2ccc(OC)c(OC)c2)cc1
  3, 35
- CN(CCc1ccccn1)C(=O)Nc1cccc(Cl)c1
  -9, 78
- Cc1ccsc1CN1CC(=O)N(c2c(C)cccc2C)C1=S
  12, 41
- COc1ccccc1-c1coc2cc(OCC(=O)OCc3ccccc3)ccc2c1=O
  -13, 58
- Cc1nnc2ccc(-c3ccc(NC(=O)Cc4cccs4)cc3)nn12
  0, 48
- CNC(=O)Oc1cccc(-c2cn3cc(Cl)ccc3n2)c1
  -2, 47
- Cc1ccc(-n2c(SCC(=O)NCCN3C(=O)CSC3=O)nnc2-c2ccccc2F)cc1
  3, 74
- Cc1[nH]c2ccccc2c1/C=N/Nc1nc(Nc2ccc(F)cc2)nc(N2CCOCC2)n1
  -2, 35
- Cc1cccc(C)c1NC(=O)CNC(=O)C(NC(=O)c1ccc(C(C)(C)C)cc1)C(C)C (configuration not stated)
  -1, 74
- C=CCn1c(O)c(/C=C2\C=Nc3ccccc32)c(=O)[nH]c1=O
  -1, 43
- O=C1NC(=O)C(=Cc2ccc(N3CCN(C(=O)c4ccccc4)CC3)c([N+](=O)[O-])c2)C(=O)N1
  -5, 85
- CCOc1ccc(CN(C)C(=O)c2cccnc2OCC)cc1OC
  -4, 32
- Cn1c(=O)c2c(ncn2CC(=O)N/N=C/C=C/c2ccco2)n(C)c1=O
  -25, 52
- Cc1ccccc1NC(=O)COC(=O)C1(C)CC1(Cl)Cl (configuration not stated)
  7, 32
- CCCCNC(=O)COC(=O)CCC(=O)c1cccs1
  -7, 42
- Nc1nc2c(Cl)cc(Cl)cc2s1
  -9, 43
- Cc1ccc(C)c(NC(=O)CN(C)C(=O)Cc2ccccc2)c1
  -5, 31
- CCc1nc2ccccc2n1Cc1ccc(F)cc1
  -14, 47
- O=C(NC(=S)N1CCc2ccccc21)c1ccc(Br)o1
  -6, 33
- Cc1csc(C(=O)O)c1NC(=O)c1cccc([N+](=O)[O-])c1
  1, 57
- CCc1nc2cc([N+](=O)[O-])c([N+](=O)[O-])cc2[nH]1
  17, 51
- O=C(N/N=C/c1c[nH]c2ccc(Br)cc12)c1ccn(Cc2ccc(Cl)cc2Cl)n1
  -7, 65
- CCc1nc2ccc(C(=O)Nc3cccc(C(C)=O)c3)cc2nc1CC
  11, 99
- Cc1ccc(C)c(Nc2cc(C(=O)NCc3cccnc3)c3ccccc3n2)c1
  4, 39
- Cn1c(=O)c2c(nc(N/N=C/c3cccs3)n2Cc2ccccc2)n(C)c1=O
  -20, 43
- Cc1ccc(NNC(=O)c2c(F)cccc2Cl)cc1Cl
  -6, 76
- CCn1c(C)nc2cc(C(=O)NNS(=O)(=O)c3cc(Br)ccc3Br)ccc21
  -9, 33
- O=C(CSc1nnc(-c2ccccn2)n1Cc1ccccc1)NC1CCCC1
  -8, 49
- Cc1cc(/C=C2/C(=O)N(C)C(=S)N2C)c(C)n1C1CC1
  -11, 56
- O=C(/C=C/c1ccc(F)cc1)c1ccc(N2CCOCC2)cc1
  -12, 71
- C/C(CC1CC2=C(CC1(C)C)C(C)(C)CCC2)=N\NC(N)=S (configuration not stated)
  -15, 99
- C/C(N)=C(/C#N)C(=O)COC(=O)c1cccc(C)c1O
  -13, 38
- Cc1c(NC(=O)CCSCCc2ccccn2)cccc1[N+](=O)[O-]
  -13, 51
- Cc1ccccc1OS(=O)(=O)c1cn(C)c(=O)n(C)c1=O
  13, 69
- CCN1C(=O)CSC1=NC1C2CC3CC(C2)CC1C3 (configuration not stated)
  -3, 88
